Source: PubChem BioAssay
KCNQ2 pot – KCNQ2 (rat) channel potentiation; O88943; CHO-K1 KCNQ2, FluxOR thallium flux fluorescence; active compounds read high; B-score at 10 µM; hit rate 0.54% among 310,000; AID 2239;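 active = fluorescence ratio B-score at least 3 SD of library B-scores, with initial fluorescence B-score within 3 SD, cut at about 5.3 in these data; same plate scores as AID 2156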;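 also: B-score of peak minus minimum over baseline fluorescence ratio after K+ and Tl+ stimulus; positive B-score means potentiation of KCNQ2 with more thallium influx and brighter signal; only the inactives scoring about 0 or higher are listed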
Target sequence (O88943 whole entry, looked up): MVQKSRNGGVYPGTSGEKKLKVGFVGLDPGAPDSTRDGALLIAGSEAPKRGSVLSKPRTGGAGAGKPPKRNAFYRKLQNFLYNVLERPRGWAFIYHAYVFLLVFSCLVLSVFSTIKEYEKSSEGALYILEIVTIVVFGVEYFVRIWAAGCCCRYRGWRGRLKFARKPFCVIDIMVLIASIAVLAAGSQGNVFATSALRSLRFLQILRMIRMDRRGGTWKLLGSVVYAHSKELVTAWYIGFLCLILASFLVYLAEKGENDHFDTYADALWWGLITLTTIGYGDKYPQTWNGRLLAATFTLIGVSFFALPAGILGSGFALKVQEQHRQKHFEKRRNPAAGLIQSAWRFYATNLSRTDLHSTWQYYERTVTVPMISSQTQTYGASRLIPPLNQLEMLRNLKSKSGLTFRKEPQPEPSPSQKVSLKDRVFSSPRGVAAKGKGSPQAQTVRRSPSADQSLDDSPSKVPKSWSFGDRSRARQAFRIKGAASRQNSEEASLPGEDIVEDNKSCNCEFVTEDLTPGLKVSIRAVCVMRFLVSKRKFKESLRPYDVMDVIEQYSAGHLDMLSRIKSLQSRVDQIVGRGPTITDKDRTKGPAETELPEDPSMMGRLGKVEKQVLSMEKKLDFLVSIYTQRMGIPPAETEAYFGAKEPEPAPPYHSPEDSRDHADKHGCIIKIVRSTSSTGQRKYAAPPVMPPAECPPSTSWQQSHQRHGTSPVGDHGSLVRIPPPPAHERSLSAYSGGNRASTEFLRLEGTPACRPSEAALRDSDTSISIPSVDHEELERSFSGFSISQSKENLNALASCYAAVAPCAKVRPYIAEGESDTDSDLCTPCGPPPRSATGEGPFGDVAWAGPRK
KCNQ2 pot baseline – recorded beside KCNQ2 pot, whose call it bears; B-score; compound at 10 µM; measured here: initial fluorescence intensity artifact check;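 brightness before thallium and not channel activity; 0 = typical well and far values either way flag optical interference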
Starred values were filed as active, the others as inactive. A portion of the library; count on the stated rates, not on these rows.

SMILES	KCNQ2 pot	KCNQ2 pot baseline
COc1ccc(S(=O)(=O)Nc2cccc(N(C)S(C)(=O)=O)c2)cc1Br	0.33	0.01
N/C(=N\OC(=O)CCc1ccccc1)c1ccc(Cl)cc1	0.04	-0.06
Cc1ccccc1CSCC(=O)Nc1c(C)n(C)n(-c2ccccc2)c1=O	2.1	1.7
CC(C)CNC(=O)c1ccc2c(c1)C(=O)N(Cc1ccco1)C2=O	0.06	-1.9
COc1ccc(C)cc1NC(=O)c1[nH]c(C)c(C(C)=O)c1C	0.12	-1.4
CCOC(=O)C1CCCN(C(=O)Nc2cccc(Cl)c2)C1 (configuration not stated)	0.71	-0.05
Cc1ccc(Nc2nc(-c3sc(C)nc3C)cs2)cc1	2	0.43
CCOC(=O)CNC(=O)c1ccc2[nH]c3c(c2c1)CCCC3	1.1	1.7
Cc1c(Cc2c(C)n(C)n(-c3ccccc3)c2=O)c(=O)n(-c2ccccc2)n1C	0.76	-0.04
Cc1ccc(S(=O)(=O)NCCNC(=O)c2ccccc2)cc1	0.45	-0.46
CC(=O)Nc1ccc(NC(=O)c2ccc(COc3ccc(C)cc3)o2)cc1	0.69	-1.4
O=C(NCC(=O)N1CCCC(C(F)(F)F)C1)c1ccccc1F (configuration not stated)	0.76	2.2
CCN(CC)CCNC(=O)c1ccc(NC(=O)/C=C/c2cc(OC)c(OC)c(OC)c2)cc1	0.17	0
COc1ccc(Nc2nc(NN)nc(Nc3ccc(OC)cc3)n2)cc1	1.5	1.7
CCOc1ccc(S(=O)(=O)NCCC(=O)Nc2ncccc2C)cc1	1.9	3.1
O=C1c2ccccc2C(=O)N1CCn1c(=O)oc2ccccc21	0.98	-1.2
O=C(Nc1ccnn1C1CCN(C/C=C/c2ccccc2)CC1)c1ccccc1	0.04	-0.86
CCOC(=O)N1CCC(N2Cc3cccc(C(=O)Nc4ccc(S(=O)(=O)N(CC)CC)cc4)c3C2=O)CC1	0.5	-1.1
CCOCC(=O)N1CCN(c2cccc(Cl)c2)CC1	0.06	-1.5
Cc1cc(NC(=O)C2CC(=O)N(c3ccccc3Cl)C2)no1 (configuration not stated)	1.1	-0.03
COc1ccc(C(=O)Nc2c(Cl)cc(Cl)cc2C(=O)NCCN2CCOCC2)cc1	0.58	-0.95
O=C(CSc1nnc(C2CC2)n1-c1ccccc1)NCCc1ccc(F)cc1	0.44	0.18
CCCCN(CC)C(=O)c1cc2cc3ccc(OC)cc3nc2o1	0.12	0.85
N#Cc1c(SCC(=O)Nc2ccccc2C(F)(F)F)sc2c(O)cc(=O)[nH]c12	1.3	-1.1
S=c1[nH]nc(Cc2noc3ccccc23)n1-c1ccc(Cl)cc1	0.08	-1.4
Cc1cc(C)nc(NS(=O)(=O)c2ccc(NC(=O)CSc3nc(-c4ccccc4)c(C#N)c(=O)[nH]3)cc2)n1	0.89	0
Cc1ccc(C(=O)NCCc2csc(-c3cccnc3)n2)cc1	0.03	0.39
FC(F)Oc1ccccc1NC(=S)NCc1ccco1	0.1	0.64
COC(=O)NCC(c1ccc2c(c1)OCO2)N1CCN(c2ccc(OC)cc2)CC1 (configuration not stated)	0.95	-0.21
COCCNC(=O)c1ccccc1NC(=O)CCSc1ccccc1	1.2	-0.52
Cc1ccc(-n2c(=O)cc(NCc3cccnc3)[nH]c2=O)cc1	1.7	3.1
O=C(c1ccc2ccccc2c1)C1CCCN(S(=O)(=O)c2cccnc2)C1 (configuration not stated)	1.5	-0.13
O=C(OCC(=O)c1ccc(S(=O)(=O)N2CCCC2)cc1)C1=COCCO1	0.02	-0.15
COc1cc(C)nc(Oc2ccc(=O)[nH]n2)n1	0.09	-0.28
FC(F)(F)c1cccc(-n2cc(-c3ccccc3)[nH]c2=S)c1	1.9	-2.8
CCOc1ccc(N=C(/C(C(=O)C(=O)N2CCOCC2)=C(\O)c2ccccc2)c2ccccc2)cc1	0.27	-2.4
COc1cccc(OC)c1OCCN1CCN(C(=O)c2ccco2)CC1	0.11	-0.37
CC(=O)Nc1ccc(NC(=O)CSc2nc(=O)n3cccc(C)c3n2)cc1	0.04	-0.56
C/C(CC(=O)Nc1cccc(C(F)(F)F)c1)=N\NC(=O)c1ccncc1	0.09	-0.19
Cc1cc(C(=O)O)cc(S(=O)(=O)Nc2ccccc2C(=O)NC(C)c2ccccc2)c1C (configuration not stated)	1.2	0.23
CCOC(=O)c1c(C)oc2c1c(C=NCC1CCCO1)c(O)c1ccccc12 (configuration not stated)	0.5	-0.89
CC(=O)c1cccc(NC(=O)CCc2nnc3ccc(NCc4ccc5c(c4)OCO5)nn23)c1	1.2	1.8
Cc1ccc(N2CC(=O)N(CC(=O)O)C2=O)cc1	1.2	-0.03
O=C1CC(c2ccccc2)CCc2sccc2N1 (configuration not stated)	0.95	-0.22
O=C(c1ccc([N+](=O)[O-])cc1Cl)N1CCN(c2ccccn2)CC1	0.6	-0.15
O=C(Nc1cccc(C(=O)N2CCN(c3cccc(Cl)c3)CC2)c1)c1ccccc1	0.12	1.1
O=C(Nc1nnc(C2=COCCO2)o1)c1ccc(S(=O)(=O)N2CCCC2)cc1	0.36	2.2
COCC(C)NCc1cccc([N+](=O)[O-])c1 (configuration not stated)	2.2	-0.04
C/C(Cc1ccccc1)=N\NC(=O)C1CCCCC1	1.4	-0.17
COC(=O)c1ccccc1NC(=S)NC(NC(=O)c1ccccc1[N+](=O)[O-])C(Cl)(Cl)Cl (configuration not stated)	0.86	-0.78

Profiles from above. Values in the order: KCNQ2 pot | KCNQ2 pot baseline
Results for `COCC(C)NCc1cccc([N+](=O)[O-])c1` (configuration not stated) → 2.2 | -0.04
Results for `O=C1CC(c2ccccc2)CCc2sccc2N1` (configuration not stated) → 0.95 | -0.22
Results for `O=C(Nc1nnc(C2=COCCO2)o1)c1ccc(S(=O)(=O)N2CCCC2)cc1` → 0.36 | 2.2

Carrying on:
SMILES	KCNQ2 pot	KCNQ2 pot baseline
Cc1ccc(CCC(=O)Nc2ccc(N(C)C)cc2)o1	0.65	0.18
O=S(=O)(Nc1ccc(N2CCOCC2)nn1)c1ccccc1	0.06	3.1
CC(Cc1cccs1)NC(=O)c1cccs1 (configuration not stated)	1.1	0.27
Cc1ccc(O)c(NC(=O)c2ccc3c(c2)C(=O)N(Cc2cccnc2)C3=O)c1	0.78	-0.08
Cc1nc(SCCC(=O)O)c2ccccc2n1	0.26	1.5
Cc1ncc([N+](=O)[O-])n1CC(=O)N/N=C/c1ccccc1F	0.17	-2.3
C/C=C\C=C/C(=O)Nc1cccc(C2=NOC3(C2)C[C@@H](C(N)=O)N(C(=O)CCCCC)C3)c1 (some centres not stated)	1.3	-0.6
Cc1cc(C)nc(N2CCC(C(=O)NCC3CCCCC3)CC2)n1	0.18	-0.2
COc1ccc(-n2c(C)cc(C(=O)CSc3nn4c(=O)c(C(C)(C)C)nnc4s3)c2C)cc1	0.08	0.77
C#CCOc1ccc(/C=N/NC(=O)c2cccnc2)cc1OCC	1.1	-0.92
CCCc1noc(-c2ccc(-c3ccccc3)cc2)n1	0.01	0.04
CCCC(=O)NCCc1cc2c(C)ccc(C)c2[nH]c1=O	1.3	0.47
CCS(=O)(=O)N1Cc2ccccc2CC1C(=O)N(C)CC(=O)Nc1cccc(F)c1 (configuration not stated)	0.47	1.1
CC(=O)Nc1ccc(Nc2cc(C)c3ccccc3n2)cc1	0.31	-0.58
COC(=O)c1ccc(C(=O)NC(=S)Nc2nc3c(s2)CCCC3)cc1	7.3*	1.6*
CC1(c2ccccc2)NC(=O)N(CC(=O)NCCC2=CCCCC2)C1=O (configuration not stated)	0.04	-1.6
COC(=O)C(C)Sc1ccc2nnc(-c3cccc(F)c3)n2n1 (configuration not stated)	1.1	0.01
O=C(Nc1ccc(F)cc1)c1ccc(=O)[nH]n1	0.39	0.38
c1ccc(-c2cnn3nnnc3n2)cc1	0.18	0.86
Cc1cc(C(=O)NC2CCC(C)CC2)c(C)o1 (configuration not stated)	0.49	2.1
CCOC(=O)N1CCN(S(=O)(=O)c2ccc(C(=O)N(CCCN(C)C)c3nc4ccc(Cl)cc4s3)cc2)CC1	1.1	0
CCOc1ccccc1N1CC(C(=O)Nc2ccc(S(=O)(=O)N3CCCCC3)cc2)CC1=O (configuration not stated)	0.19	0.02
CCC(=O)c1c[nH]c(C(=O)NCCCN2CCOCC2)c1	0.16	0.4
O=C1CSC(c2ccccc2[N+](=O)[O-])N1c1cccc(F)c1 (configuration not stated)	0.48	-1.4
C1CC1Cc1noc(CN2CCN(C3C4CC5CC(C4)CC3C5)CC2)n1 (configuration not stated)	0.05	1.1
COc1ccc(CCC(=O)NC(C)C)cc1	1.3	1.8
COc1ccc(NC(=O)Cn2c3ccccc3c3nc4n(c(=O)c32)CCS4)cc1OC	1.1	1.5
NC(=O)C1CCN(c2nc(-c3ccc(Br)cc3)cs2)CC1	0.06	2.9
Cc1ccc(C)c(-n2c(N)c(C(N)=O)sc2=S)c1	0.14	0.39
O=C(O)c1cc(N2C(=O)C3C4C=CC(C4)C3C2=O)ccc1N1CCOCC1 (configuration not stated)	0.27	0.61

Three entries out of the list above, sorted by their value in KCNQ2 pot, highest first:
SMILES	KCNQ2 pot	KCNQ2 pot baseline
O=C(O)c1cc(N2C(=O)C3C4C=CC(C4)C3C2=O)ccc1N1CCOCC1 (configuration not stated)	0.27	0.61
NC(=O)C1CCN(c2nc(-c3ccc(Br)cc3)cs2)CC1	0.06	2.9
C1CC1Cc1noc(CN2CCN(C3C4CC5CC(C4)CC3C5)CC2)n1 (configuration not stated)	0.05	1.1

Other entries:
SMILES	KCNQ2 pot	KCNQ2 pot baseline
CC(=O)Nc1cccc(C(=O)NC(C)c2ccc(S(N)(=O)=O)cc2)c1 (configuration not stated)	0.46	0.83
O=C(NCCc1ccccc1)c1ccccc1NC(=O)C1CCCCC1C(=O)O (configuration not stated)	0.03	1.4
CCn1cc(CNC(=O)C2C3CCC(C3)C2C(=O)O)cn1 (configuration not stated)	0.01	0.93
Cc1nc2ccccn2c1C(=O)N/N=C/c1ccccc1	1.1	-0.26
CC1(C)CC(=O)C(C=NCCN2CCN(C(=O)c3ccccc3)CC2)=C(O)C1	0.07	-1.3
O=C(O)c1ccc(N/N=C/c2ccc(-c3cc(Cl)ccc3Cl)o2)cc1	2.9	0.07
Cn1nc(-c2ccccc2)cc1NC(=O)CCCC(=O)O	0.04	1.5
CCn1c(SCC(=O)Nc2ccccc2)nnc1-c1ccc(S(=O)(=O)N2CCOCC2)cc1	0.73	-0.1
Cc1cc(C(=O)OCCN2C(=O)c3ccccc3C2=O)c2ccccc2n1	0.56	0
O=C(NCCc1c[nH]c2ccccc12)c1cnc2n(c1=O)CCS2	1.8	-1

Three structures from above, ordered by heavy-atom count, falling.
SMILES	KCNQ2 pot	KCNQ2 pot baseline
CCCCN(CC)C(=O)c1cc2cc3ccc(OC)cc3nc2o1	0.12	0.85
CCC(=O)c1c[nH]c(C(=O)NCCCN2CCOCC2)c1	0.16	0.4
COc1cc(C)nc(Oc2ccc(=O)[nH]n2)n1	0.09	-0.28

Further results follow.
SMILES	KCNQ2 pot	KCNQ2 pot baseline
Cc1cc(C(=O)N2CCN(c3ccccn3)CC2)no1	0.08	0.14
CCc1nccn1CCC(=O)N1CCCC(N2CCN(c3cccc(Cl)c3)CC2)C1 (configuration not stated)	0.82	-0.76
CCOC(=O)N1CCN(S(=O)(=O)c2ccc(C(=O)N(CCN(CC)CC)c3nc4ccc(C)cc4s3)cc2)CC1	0.05	1.4
COc1ccc(-c2[nH]ncc2CN2CCC(C(=O)N3CCOCC3)CC2)c(F)c1	1.7	-0.5
CCOc1ccc(C(=O)Nc2ccccc2N2CCCC2)cc1	0.46	0.89
COc1ccc(CN2C(=O)c3ccccc3C2=O)cc1	0.72	-1.2
O=C(COC(=O)c1cncc(Br)c1)NCC1CCCO1 (configuration not stated)	0.34	1.6
O=C(CCCN1C(=O)/C(=C/c2cccs2)SC1=S)NNC(=O)c1ccncc1	0.9	-3.1
O=C1CC(C(=O)NCc2ccccc2)N=C(N2CCCCC2)N1 (configuration not stated)	1	-1.1
O=C(Nc1nc2ccc(Cl)cc2s1)C1CC1	0.82	1.1
CCCCn1c(-c2ccco2)n[nH]c1=S	0.19	1.1
NC1=NC(c2cn[nH]c2-c2ccc(F)cc2)n2c(nc3ccccc32)N1 (configuration not stated)	0.54	-1.3
Cc1c(C)n(Cc2ccccc2)c2ncnc(N)c12	1.9	0.33
CCOC(=O)C1=C(c2ccccc2)NC(=O)NC1c1cccc(OC)c1OC (configuration not stated)	0.69	1.3
Cc1ccc(NC(=O)CSc2nnc(-c3cnccn3)n2-c2ccccc2)cc1	0.65	0.09
O=C(COC(=O)c1cc2ccccc2oc1=O)c1cccc([N+](=O)[O-])c1	0.04	2.6
CC(=O)Nc1ccc(SCC(=O)c2cc(C)n(-c3ccccc3)c2C)cc1	0.02	-0.65
CCCCn1c(N)c(N(CC(C)C)C(=O)C2CCN(S(=O)(=O)c3ccc(Cl)cc3)CC2)c(=O)[nH]c1=O	0.13	1.6
O=S(=O)(NC(=NCc1ccccc1)c1ccccc1F)c1ccccc1	1.2	-0.21
CCC(C)(C)NC(=O)C(c1ccccc1)N(Cc1cccs1)C(=O)Cn1nnc2ccccc21 (configuration not stated)	0.73	-1.8

Some of the entries so far, field by field:
> C/C=C\C=C/C(=O)Nc1cccc(C2=NOC3(C2)C[C@@H](C(N)=O)N(C(=O)CCCCC)C3)c1 (some centres not stated)
- KCNQ2 pot: 1.3
- KCNQ2 pot baseline: -0.6

> CC(=O)Nc1cccc(C(=O)NC(C)c2ccc(S(N)(=O)=O)cc2)c1 (configuration not stated)
- KCNQ2 pot: 0.46
- KCNQ2 pot baseline: 0.83

Remaining list, next part:
SMILES	KCNQ2 pot	KCNQ2 pot baseline
Cc1cccc(-n2c(-c3ccc(Br)o3)n[nH]c2=S)c1	0.71	1.5
O=C(OCC(=O)N1CCCC1)c1cc([N+](=O)[O-])ccc1Cl	0.58	0.05
N#Cc1ccc(-c2nc3ccc(Br)cc3c(=O)n2O)cc1	4.2	0.55
CC(C)CN1CCC(=O)N(CCC#N)CC1	1.1	0.3
Cc1ccc(C2=NS(=O)(=O)N(C)C(C(=O)N3CCOCC3)=C2)cc1	0.52	2.4
O=C1C(Cl)=C(N2CCOCC2)C(=O)N1c1ccccc1F	0.82	1.7
